Calb FLC: C. albicans growth modulation with fluconazole. C. albicans CaCi-2 (fluconazole-resistant clinical isolate) + fluconazole, Alamar Blue growth, 48 h. growth inhibition, % (no concentration beside the values). hit rate 0.57% among 300,000;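 active = most replicates above 75%; inconclusive = exactly half above 75%; inactive = most below 75%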;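 also: all wells also contain fluconazole at 8 µg/ml as a sub-toxic cotreatment; 0% = median of DMSO wells and 100% = median of geldanamycin control wells; wells of about 8 µL received 7.5 nL stock; the first replicate is given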
LANA-H2B inh: blocks KSHV LANA binding to histone H2A/H2B | inhibition, % (no concentration beside the values) | AID 2629 | Q9QR71 | cell-free LANA-H2A/H2B peptide, fluorescence polarization | hit rate 0.6% among 320,000; in the data active = inhibition mostly above about 10%, no sharp cut-off; inactive = mostly below about 6.7%;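 also: stock transfer was 7.5 nL into about 10 µL; 0% = median of vehicle wells and 100% = median of positive control wells; one replicate is shown; the record names a cut of 25% in any replicate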
rRNA inh HTS: selective bacterial rRNA inhibition in E. coli; E. coli WT GFP vs humanized-ribosome RFP mutants, fluorescence, 24 h; active compounds read low; DMSO median 0, no signal -100; GFP signal change (wild-type ribosome), % (test concentration not listed); hit rate 1.6% among 350,000; AID 720706;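 active = significant combined selectivity score with lowered wild-type GFP, culture density cut under 30%, mutant RFP and density less affected; inactive = any of these conditions unmet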; also: one replicate is shown; some compounds called inactive have numbers as strong as hits
T cruzi repl: T. cruzi replication inhibition; T. cruzi beta-gal in NIH3T3, luminescence, 90 h; hit rate 1.4% among 300,000; inhibition, % (concentration not given with the values);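 active = mean inhibition across valid replicates above about 55%, limit read from the data; inconclusive = mean below that limit but half or more replicates reach it; inactive = mean below it, under half of replicates reach it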;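 also: signal also drops with host cell toxicity which is not excluded here; 0% = plate median of DMSO wells and 100% = zero luminescence signal; higher percent means less beta-gal luminescence so fewer parasites; stock transfer was 50 nL into about 50 µL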
B2AR ag: activates human beta-2 adrenergic receptor causing internalization. response, % (concentration not given with the values). P07550. hit rate 0.43% among 340,000. Am2.2-beta2AR cells, FAP receptor internalization, flow cytometry; reference of the scale not given here. AID 504454;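 active = response above a set limit, near 3 SD of response in nonfluorescent compounds, cut at about 42% in these data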;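 also: stock transfer was 100 nL into about 11 µL; a reference agonist was the positive control; negative values mostly stem from fluorescent compounds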
Target sequence (P07550 whole entry, looked up): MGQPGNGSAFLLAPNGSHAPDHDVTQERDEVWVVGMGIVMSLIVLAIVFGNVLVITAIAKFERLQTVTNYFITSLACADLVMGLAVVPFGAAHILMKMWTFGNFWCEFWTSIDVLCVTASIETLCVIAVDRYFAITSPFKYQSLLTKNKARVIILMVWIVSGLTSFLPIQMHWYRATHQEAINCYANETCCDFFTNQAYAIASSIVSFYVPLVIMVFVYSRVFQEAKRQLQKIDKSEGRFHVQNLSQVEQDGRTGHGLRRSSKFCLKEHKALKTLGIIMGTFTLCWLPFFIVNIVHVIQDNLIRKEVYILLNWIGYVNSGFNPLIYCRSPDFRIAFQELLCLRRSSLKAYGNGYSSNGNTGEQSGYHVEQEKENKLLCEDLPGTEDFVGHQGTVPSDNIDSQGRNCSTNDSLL
ALR H2O2 inh: inhibitors of human sulfhydryl oxidase ALR; purified ALR, DTT oxidation, H2O2 HRP-luminol luminescence; hit rate 3.8% among 290,000; AID 485317; inhibition, % (test concentration not listed);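 active = mean and each replicate at 75% or more; inconclusive = only one of the two met; inactive = neither met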;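 also: stock transfer was 7.5 nL into about 7.5 µL; 0% = neutral wells and 100% = wells with inactivated enzyme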
Target sequence (P55789 whole entry, looked up): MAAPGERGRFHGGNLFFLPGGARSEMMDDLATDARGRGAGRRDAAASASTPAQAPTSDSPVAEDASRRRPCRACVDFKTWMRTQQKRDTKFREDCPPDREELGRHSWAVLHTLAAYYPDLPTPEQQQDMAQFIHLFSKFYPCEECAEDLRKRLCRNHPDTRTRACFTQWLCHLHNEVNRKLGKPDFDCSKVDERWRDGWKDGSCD
Bfl-1 A1 inh: inhibitors of the anti-apoptotic protein A1, read as caspase activation | MEF A1-2A-BIM cells, Caspase-Glo 3/7 luminescence, 3 h; percent of clofoctol response, vehicle zero | caspase activation, % (concentration not given with the values) | hit rate 0.066% among 330,000;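 active = over half of replicate activation scores above 10%, or exactly half above 10 with the replicate mean above 10; inconclusive = replicate mean below 10 yet half the replicates above 10; inactive = over half of replicates below 10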;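 also: wells of about 30 µL received 50 nL stock; many hits fall short of the cut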
Beta apoptosis: blocks beta cell apoptosis; protection from apoptosis, % (concentration not given with the values); INS-1E cytokine-induced death, ATP luminescence, 48 h; percent of positive-control rescue, neutral wells zero; hit rate 0.8% among 300,000; AID 435005;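 active = all replicates at 75% or more, or half of them and the mean; inconclusive = half reach 75% but not the mean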;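 also: 0% = cytokine-treated negative control wells and 100% = positive control rescue; higher means more ATP so stronger rescue from cytokine killing; wells of about 40 µL received 100 nL stock; the first replicate is given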
rRNA inh HTS OD600: second read-out of rRNA inh HTS, no call of its own (marks repeat the call); OD600 change, %; measured here: OD600 growth;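 optical density of the mix in the first replicate; 0 = DMSO median and -100 = no signal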
rRNA inh HTS RFP: recorded beside rRNA inh HTS, whose call it bears; RFP signal change, %; measured here: RFP humanized mutant strains;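 first replicate; 0 = DMSO median and -100 = no signal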
Numbers without * were called inactive; ? = inconclusive; nt = not tested or not shown; & = joins results of further samples. Not all compounds are listed (hit frequency here may not be typical).

SMILES	Calb FLC	LANA-H2B inh	rRNA inh HTS	rRNA inh HTS OD600	rRNA inh HTS RFP	T cruzi repl	B2AR ag	ALR H2O2 inh	Bfl-1 A1 inh	Beta apoptosis
COc1ccc(NC(=O)CC2C(=O)NCCN2C(=O)c2ccccc2)cc1 (configuration not stated)	1	-2.7	9	7	1.5	-4	-48	-9	-0.4	-2
COc1ccc(-c2nc(N3CCCCCC3)sc2C(=O)c2ccccc2)cc1	4	-5.3	nt	nt	nt	20	-6	-5	1.3	0
CCP(=O)(CC)c1cccc(N)c1	15	0.6	nt	nt	nt	-13	10	-10	0.8	-12
CSc1nncc(/C(C)=N\Nc2cccc(C)c2)n1	3	8.6	nt	nt	nt	4	-1	16	0.1	8
Cc1nn2c(N)c(C#N)cnc2c1-c1ccc(Cl)cc1	-2	-2.3	nt	nt	nt	-15	0	1	-0.2	-3
CCCc1cc(=O)[nH]c(SCC(=O)Nc2ccc([N+](=O)[O-])cc2C#N)n1	-3	1.9	-5	-8	-5.8	1	23	-4	1.1	1
COc1ccc(OC)c(S(=O)(=O)NCC2CCCO2)c1 (configuration not stated)	5	-6.4	nt	nt	nt	-4	12	-5	-0.2	-3
Cn1cnnc1SCC(=O)NC1CCCN(Cc2ccc(Cl)cc2)C1 (configuration not stated)	-2	-13	3	-2	-2.1	25	-4	-16	0.3	-5
O=C(COc1ccc(F)cc1Cl)Nc1ccc(N2CCOCC2)cc1N1CCOCC1	4	-1.7	4	2	2.0	40	-10	0	1.1	-2
COC(=O)C1C(O)=C(C=NCc2ccccc2)C(=O)CC1(C)C (configuration not stated)	0	2.7	nt	nt	nt	-4	1	nt	0.0	-6
C[C@H](CO)N1C[C@H](C)[C@@H](CN(C)C(=O)NC2CCCCC2)Oc2ccc(NS(=O)(=O)c3ccccc3)cc2C1=O	nt	4.2	5&3	6&-7	0.3&-3.8	nt	1	-4	0.3	2
CCN(CC)S(=O)(=O)c1cccc(-c2nnc(SCC(=O)c3ccc(Cl)s3)n2C)c1	-6	0.8	nt	nt	nt	19	-16	20	-0.2	-3
CC(C)NC(=O)CC1C(=O)NCCN1CC(c1ccccc1)c1ccccc1 (configuration not stated)	-12	-59	16	16	1.7	1	-1	-3	-0.7	-3
CC(C)C(C)NC(=O)CN1C(=O)NC2(CCCc3ccccc32)C1=O (configuration not stated)	-10	0.6	5	15	2.9	0	7	-3	-0.6	0
CCOc1ncccc1C(=O)OCc1ccc(C(=O)OC)o1	1	1.3	nt	nt	nt	-3	4	4	-0.4	-3
CCCCn1c(-c2cccc3ccccc23)nc2cc3[nH]c(=O)c(C(C)C)nc3cc21	1	-1.4	5	0	0.2	63*	5	-10	1.1	12
CC(C)CN(C(=O)c1ccc(C(F)(F)F)cc1)c1c(N)n(CC(C)C)c(=O)[nH]c1=O	1	2.4	0	6	-2.0	-3	4	-5	-0.3	-2
CCN1CCN(c2nc(S(=O)(=O)c3ccc(C)cc3)c(Cl)s2)CC1	10	-0.5	-10	-14	0.3	27	2	-9	-1.0	0
CCC1(CC)NC(=O)N(CC(=O)Nc2ccc(S(=O)(=O)N3CCOCC3)cc2)C1=O	-2	-2.4	nt	nt	nt	-1	-3	-6	0.5	-5
CCC(OC(=O)c1ccco1)C(=O)NC1CCCC1 (configuration not stated)	4	2.2	-2	-4	-2.2	-2	7	-5	0.1	-5
CCOC(=O)c1ccc(N/N=C/c2cc(Br)cc([N+](=O)[O-])c2O)cc1	-17	0.1	-5	5	4.4	19	9	-18	0.2	32
Cc1cc2oc(=O)cc(CN(C)Cc3cccc(F)c3)c2cc1Cl	1	-2.3	-3	-16	3.9	33	-7	-4	-0.6	-3
O=C(OCc1ccccc1)/C(=C/c1cccc([N+](=O)[O-])c1)NC(=O)c1ccco1	nt	-8.8	-9	-6	0.6	-3	-4	4	0.4	-5
CCC(C)N(C(=O)Cn1c(=O)cnc2ccccc21)C1CCS(=O)(=O)C1 (configuration not stated)	-2	-0.1	15	11	0.8	-4	-3	-1	-0.2	-5
CC(C)(C)C1CCc2c(sc(NC(=O)C3CC=CCC3C(=O)O)c2C#N)C1 (configuration not stated)	-8	-5.2	nt	nt	nt	-3	1	97*	-0.1	-9
CC(NCCCOc1cccc2ccccc12)c1ccccc1 (configuration not stated)	2	1.8	-48	-78	-11	43	16	-13	0.4	nt
Cc1ccc(-c2cc(-c3ccccc3)nc(N)c2C#N)o1	-1	1.3	1	1	1.4	3	10	-5	0.1	-2
NC(=O)c1cccc2c(=O)oc3ccccc3c12	8	2.9	nt	nt	nt	6	-1	-4	-0.5	-2
Nn1c(SCC(=O)Nc2ccc(Oc3ccccc3)cc2)nnc1C1CC1	16	-6.7	nt	nt	nt	nt	-14	28	-0.7	8
N#CCn1c2ccccc2c2nc3ccccc3nc21	2	1.8	28	24	2.2	-1	-10	-5	-0.6	15
Cc1ccc(-c2nnn(CCC(=O)NC(C)(C)C)n2)cc1	3	4.3	nt	nt	nt	-5	3	-2	0.3	-1
O=S(=O)(Nc1ccc(Br)cn1)c1ccc(Cl)s1	nt	-3.0	9	-14	-2.8	0	0	2	0.4	6
O=C(O)c1ccc(/C=C2\SC(=S)N(NC(=O)c3ccc(Br)cc3)C2=O)cc1	-14	-3.1	-6	-1	3.1	-3	4	nt	-0.5	1
CCOC(=O)C(C(C)=O)c1c(Br)c(O)c(O)c2c(C(=O)c3ccc(C)cc3)coc12 (configuration not stated)	15	-2.8	nt	nt	nt	16	-1	-7	-0.7	95*
CCCc1cc(=O)[nH]c(Nc2ccc(O)cc2)n1	-4	2.9	nt	nt	nt	-15	-3	99*	0.6	-3
COc1cc(CNCCSc2nnnn2C)cc(Br)c1OCc1ccccc1	-9	3.2	-24	-21	28	36	17	5	0.6	2

Shown as a hit in ALR H2O2 inh (from the list above):
SMILES	LANA-H2B inh	rRNA inh HTS	rRNA inh HTS OD600	rRNA inh HTS RFP	B2AR ag	ALR H2O2 inh
CC(C)(C)C1CCc2c(sc(NC(=O)C3CC=CCC3C(=O)O)c2C#N)C1 (configuration not stated)	-5.2	nt	nt	nt	1	97*
CCCc1cc(=O)[nH]c(Nc2ccc(O)cc2)n1	2.9	nt	nt	nt	-3	99*

Sorted by SMILES length (falling): 3 of the compounds above
SMILES	Calb FLC	LANA-H2B inh	rRNA inh HTS	rRNA inh HTS OD600	rRNA inh HTS RFP	T cruzi repl	B2AR ag	ALR H2O2 inh	Bfl-1 A1 inh	Beta apoptosis
O=C(COc1ccc(F)cc1Cl)Nc1ccc(N2CCOCC2)cc1N1CCOCC1	4	-1.7	4	2	2.0	40	-10	0	1.1	-2
Cc1nn2c(N)c(C#N)cnc2c1-c1ccc(Cl)cc1	-2	-2.3	nt	nt	nt	-15	0	1	-0.2	-3
COc1ccc(OC)c(S(=O)(=O)NCC2CCCO2)c1 (configuration not stated)	5	-6.4	nt	nt	nt	-4	12	-5	-0.2	-3

New compounds follow
SMILES	Calb FLC	LANA-H2B inh	rRNA inh HTS	rRNA inh HTS OD600	rRNA inh HTS RFP	T cruzi repl	B2AR ag	ALR H2O2 inh	Bfl-1 A1 inh	Beta apoptosis
CC(CCn1cccn1)NC(=O)c1cc(COc2ccc(F)cc2F)on1 (configuration not stated)	?	-0.1	-3	-4	2.5	-34	3	-1	1.1	nt
O=C(NC1CCCC1)C1CCCN(S(=O)(=O)c2ccc(-n3cnnn3)cc2)C1 (configuration not stated)	2	-0.3	21	17	-0.2	-21	-9	-2	-0.1	-1
O=S(=O)(CCSc1ccc(C(F)(F)F)cn1)c1ccc(Cl)cc1	-9	4.5	0	2	-0.1	-12	-3	-7	0.4	-1
Cc1ccc(Cn2c(C(C)Nc3nc(-c4ccc(F)cc4)cs3)nc3cc(C(=O)NCCCO)ccc32)cc1 (configuration not stated)	14	-0.8	-5	-7	6.3	-2	-3	0	-0.1	-2
Cc1ccc(CNC(=O)Cn2ccc3ccccc3c2=O)o1	-8	1.3	nt	nt	nt	-6	1	-5	0.6	-4
CCN1C(=O)N(c2cccc3ccccc23)C(C)=CC1(C)C	18	3.4	nt	nt	nt	13	11	nt	0.3	-3
CCOc1cc(C(=O)OC(C(=O)NC(=O)NC)c2ccccc2)ccc1OCC(=O)N1CCOCC1 (configuration not stated)	nt	3.8	2	3	6.6	nt	5	-1	0.8	-3
COc1ccccc1-n1c(SCC(=O)N2CCOCC2)nc(O)c(Cc2ccccc2)c1=O	4	-1.0	nt	nt	nt	-13	-1	33	0.6	-3
COc1ccc(NC(=O)N(C)C[C@H]2Oc3c(NS(=O)(=O)c4cccs4)cccc3C(=O)N([C@H](C)CO)C[C@@H]2C)cc1	nt	2.3	-4&-3	-4&-6	-0.5&-8.7	nt	-6	-7	-0.1	-8
O=C(O)CSc1nnc(COc2cccc3cccnc23)n1-c1ccc(Cl)cc1	-3	-4.6	7	6	-0.1	-9	8	1	-1.2	-2
CN(C)C(=O)c1c2c(nc3ccccc13)CCCC2	-1	-2.2	0	12	-1.3	8	0	nt	-1.4	0
COc1ccc(/C=C/C(=O)Nc2ccccc2)cc1S(=O)(=O)N1CCOCC1	19	-3.0	-18*	0.1*	-0.6*	12	8	-4	0.4	9
CC1(C)C(=O)Nc2ccccc2N1C(=O)COC(=O)c1cccs1	nt	2.4	10	1	6.1	nt	-20	-2	0.6	-4
Nc1c([N+](=O)[O-])cc(-c2cnc[nH]2)cc1[N+](=O)[O-]	5	-4.8	13	15	-3.5	-7	0	5	-0.4	3
COc1ccc(C(=O)NCc2nnc(SC)n2Cc2ccccc2)cc1	-26	2.7	1	2	-0.2	-4	7	4	-0.9	-1
COc1ccc(-c2[nH]ncc2CN(Cc2nccn2C)C(C)C)c(F)c1	21	7.6	13	-6	-2.4	8	-2	-5	1.1	-2
Cc1onc(-c2ccccc2)c1C(=O)Nc1nc(-c2ccc(F)c(F)c2)cs1	-13	-7.0	nt	nt	nt	11	-12	-4	1.1	0
COc1ccc(/C=N/NC(=O)c2ccn[nH]2)cc1COc1ccc(Cl)cc1	-7	-5.9	nt	nt	nt	-11	-5	0	2.3	nt
CCOc1ccc(Nc2nc(N)nc(CN(C)C3CCCCC3)n2)cc1	-32	nt	nt	nt	nt	20	-12	nt	0.0	-4
N#CCSc1nnc(-c2ccc3c(c2)OCO3)o1	42	0.0	11	11	-2.6	6	-4	41	1.2	nt
O=C(CN1CCN(S(=O)(=O)c2ccccc2)CC1)NCc1ccccc1	nt	4.1	2	-5	-1.7	-3	1	-1	0.1	-2
COc1ccc2nc(Nc3nc(CSc4nc5ccccc5[nH]4)cc(=O)[nH]3)nc(C)c2c1	?	-2.4	15	-5	-9.7	43	-11	-2	0.4	77*
CSc1nc2ccccc2n1CC(=O)Nc1c(C)n(C)n(-c2ccccc2)c1=O	-4	2.3	nt	nt	nt	0	-8	-1	-1.1	-9

Bioassay records deposited in PubChem by several laboratories.
